miR-21 FLuc: raises the signal of a miR-21 reporter. HeLa miR-21 FLuc reporter, luciferase, 48 h. Potency, µM (highest dose often 38.3 µM), without a hit: at the top dose reporter change, positive = more light. 340,000 tested, under 10 active. AID 2288; active = well fitted rising curve with a large enough effect; inconclusive = small, poorly fitted or top-dose-only effect; inactive = no such curve, though single readings can be large or run the other way;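 further: % of control where 0% means no effect; miR-21 action dims this reporter so a rising signal means less miR-21 action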
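HeLa cells endogenously expressing miR-21, stably carrying CMV-driven firefly luciferase with a downstream miR-21 binding site, 2000 cells/well. Titrations up to approximately 40 uM, 48 hours; luciferase luminescence read.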
Rango dissoc inh: inhibition of RanGTP-driven Rango-importin beta dissociation; actives 0.071% (n = 340,000); O95149+P62826; Biochemical FRET Rango-importin beta, RanGTP-induced dissociation; Potency, µM (top dose mostly 46.1 µM), inactives show at the highest dose activity change, negative = inhibition; active means falling FRET ratio curve, often poorly fitted, with flat reads before Ran was added; inconclusive means other falling curves, or compound fluorescence or quenching; inactive means flat or rising ratio curve;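 further: potency means the concentration at half of the fitted maximal effect; % of control where 0% means no effect; nearly all actives have a fitted effect of over 45% in size; -100% = wells without RanGTP and RCC1; the record marks most hits as doubtful in a second field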
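Rango FRET biosensor (snurportin-1 IBB flanked by N-terminal EYFP and C-terminal CFP10) at 0.1 uM, with 0.25 uM importin beta in PBS, 1mM DTT, 0.02% Tween-20, 0.1% BSA. 0.6 uM Ran, 2mM GTP and 0.2 uM RCC1 were then added for 45 min at room temperature. Inhibition read as loss of FRET rise.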
GLA inh pH 4.5: alpha-galactosidase A (human) inhibition, pH 4.5. P06280. purified enzyme, 4-MU-alpha-Gal fluorescence, pH 4.5. 230,000 tested, under 10 active. activity change, negative = inhibition, % at 105 µM; inconclusive = small, poorly fitted or top-dose-only inhibition, or a rising curve; inactive = flat fitted curve, though single readings scatter; no compound was filed as active;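 further: 0% = full activity with enzyme and -100% = basal without enzyme; dose as in the result columns while the protocol names 77 µM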
Rango complex inh: inhibitors of Rango-importin beta complex formation. Q14974. Rango CFP/YFP FRET sensor + importin beta, 45 min. Potency, µM (series often up to 92.2 µM), for the others: top-dose inhibition of complex formation. actives 0.031% (n = 340,000); active = rising FRET ratio curve, often small or poorly fitted; inconclusive = mostly compound fluorescence or quenching in the first reads; inactive = flat curves in all reads;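 further: potency means the concentration at half of the fitted maximal effect; 0% = DMSO wells and 100% = buffer wells lacking importin beta; nearly all actives have a fitted effect of over 15% in size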
Target sequence (Q14974 whole entry, looked up): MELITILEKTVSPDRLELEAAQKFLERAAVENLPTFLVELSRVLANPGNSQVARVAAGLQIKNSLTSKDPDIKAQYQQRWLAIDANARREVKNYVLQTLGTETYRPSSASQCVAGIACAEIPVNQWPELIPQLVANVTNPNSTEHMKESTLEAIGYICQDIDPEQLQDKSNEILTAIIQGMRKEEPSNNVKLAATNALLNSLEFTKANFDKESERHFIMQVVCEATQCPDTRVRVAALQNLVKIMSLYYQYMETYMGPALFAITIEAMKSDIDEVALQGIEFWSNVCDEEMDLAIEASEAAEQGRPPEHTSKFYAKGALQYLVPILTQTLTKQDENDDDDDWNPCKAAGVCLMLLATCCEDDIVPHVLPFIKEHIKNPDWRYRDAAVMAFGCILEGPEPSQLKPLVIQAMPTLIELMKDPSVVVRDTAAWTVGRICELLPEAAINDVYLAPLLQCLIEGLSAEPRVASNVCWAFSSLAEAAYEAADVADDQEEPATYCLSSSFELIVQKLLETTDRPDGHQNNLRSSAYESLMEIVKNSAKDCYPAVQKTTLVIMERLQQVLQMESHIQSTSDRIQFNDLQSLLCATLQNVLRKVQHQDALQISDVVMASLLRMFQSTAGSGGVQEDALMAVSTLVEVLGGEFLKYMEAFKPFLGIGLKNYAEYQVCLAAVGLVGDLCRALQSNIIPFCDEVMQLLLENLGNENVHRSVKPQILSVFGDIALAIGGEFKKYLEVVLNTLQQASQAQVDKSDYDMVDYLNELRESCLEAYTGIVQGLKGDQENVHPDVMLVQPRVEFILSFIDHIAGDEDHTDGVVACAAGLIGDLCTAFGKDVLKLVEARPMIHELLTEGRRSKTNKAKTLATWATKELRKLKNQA
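Inhibition scored from the CFP 486 nm/YFP 530 nm FRET ratio 45 min after adding 0.125 microM importin beta to 50 nM Rango biosensor preincubated 5 min with compound (room temperature, PBS with DTT, Tween-20, BSA). No-importin wells as positive control.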
The depositor's hits bear a star; ? = inconclusive; . = no result given. These rows are one share of the data; rates above refer to the full screens.

Codes: A = miR-21 FLuc; B = Rango dissoc inh; C = GLA inh pH 4.5; D = Rango complex inh
COc1ccccc1CCC(=O)NNC(=O)c1ccccc1
  A: -5%	B: -2%	C: .	D: 0.3%

Cc1c(Cl)cccc1NC(=S)C(=C([O-])c1ccc(Cl)s1)[n+]1ccccc1
  A: .	B: -1%	C: .	D: 3.7%

COc1ccc(-c2ccc(C#N)c(SCC(=O)Nc3sc4c(c3C#N)CCC4)n2)cc1
  A: -16%	B: ?	C: 2	D: ?

CC(C)(C)NC(NC(=O)Cc1ccccc1)C(Cl)(Cl)Cl (centres undefined)
  A: -2%	B: 6%	C: 5	D: -3.8%

CCNc1ccc(N=Nc2c(C)n(C)n(-c3ccccc3)c2=O)cc1
  A: -51%	B: 8%	C: ?	D: 3.8%

O=C(CSc1nnc(NC(=O)c2ccccc2Cl)s1)NC1CC1
  A: -48%	B: -6%	C: .	D: -0.1%

COC(=O)/C(=C(/F)SCC(C)=O)C(F)(F)F
  A: 0%	B: .	C: 2	D: .

O=C(Nc1nc2ccccc2s1)C1CCN(S(=O)(=O)c2cc([N+](=O)[O-])ccc2Cl)CC1
  A: 26%	B: 44%	C: -13	D: -5.2%

COc1ccc(CNC(=O)C2CCN(S(=O)(=O)c3ccc4c(c3)NC(=O)CO4)CC2)cc1
  A: 2%	B: 35%	C: .	D: -0.9%

Cc1c(C(=O)N2CCCCC2)c(S(=O)(=O)N2CCc3ccccc32)c(C)n1C
  A: 4%	B: 3%	C: .	D: -0.9%

CC1(C)Cc2c(sc3nc4n(c(=N)c23)CCC4)CO1
  A: -1%	B: -2%	C: -1	D: -0.8%

COc1cc(CNC2CCCCCCC2)cc(Cl)c1OCC(N)=O
  A: 0%	B: 9%	C: .	D: -2.3%

COc1ccc(N2CCN(C(=O)c3cccc(S(=O)(=O)N4CCc5ccccc54)c3)CC2)cc1
  A: .	B: 37%	C: .	D: 0.9%

O=C(Nc1ccnn1C1CCN(Cc2cccc(OCCO)c2)CC1)C1CCCC1
  A: 0%	B: 1%	C: .	D: -2.9%

CCCCCC(=O)N=Nc1c(O)[nH]c2ccc([N+](=O)[O-])cc12
  A: -8%	B: -8%	C: 2	D: -1.2%

The results go on:
Codes: A = miR-21 FLuc; B = Rango dissoc inh; C = GLA inh pH 4.5; D = Rango complex inh
c1ccc(COC2CCCN(Cc3nc(Cc4ccccc4)no3)C2)cc1 (centres undefined)
  A: 4%	B: -10%	C: 2	D: 0.3%

CCOc1ccccc1NC(=O)C1(S(=O)(=O)c2ccc(Cl)cc2)CC1
  A: 1%	B: 1%	C: .	D: 0.5%

COC(=O)c1cc(C(=O)c2cc(Br)ccc2O)coc1=N
  A: 1%	B: -3%	C: 8	D: -0.6%

COc1ccc(C(=O)C2CCCN(Cc3cccn3-c3ccccn3)C2)c(OC)c1 (centres undefined)
  A: ?	B: -1%	C: 1	D: 8.4%

Cc1cc(NC(=O)c2ccccc2)ccc1NC(=O)c1ccccc1Cl
  A: -26%	B: 8%	C: .	D: 5.5%

O=C(O)c1cc(-c2ccco2)nn1-c1cccc(Cl)c1
  A: -1%	B: -29%	C: -13	D: ?

O=C(CSc1ccc(Cl)cc1)NNC(=O)c1cccnc1
  A: -2%	B: 1%	C: -6	D: -2.0%

Nc1c(C(=O)Nc2ccccc2)nnn1-c1ccc2c(c1)OCCO2
  A: 6%	B: -23%	C: .	D: 3.4%

CCN(CC)C(=O)COC(=O)C1=NN(c2cc(C)ccc2C)C(=O)CC1
  A: 7%	B: ?	C: .	D: -3.7%

O=S(c1ccsc1)c1ccsc1
  A: -1%	B: 0%	C: -3	D: -2.8%

COc1ccc(C(C(=O)NC2CCCC2)N(CCCO)C(=O)c2snc(C(N)=O)c2N)cc1 (centres undefined)
  A: 11%	B: -2%	C: .	D: 2.3%

COc1ccccc1/C=N\Nc1ccccc1[N+](=O)[O-]
  A: -67%	B: -11%	C: -1	D: -0.2%

CCOC(=O)c1ccc2nc(NC(=O)C(C)C)sc2c1
  A: -46%	B: -27%	C: -1	D: -2.1%

C=CCn1c(CCCNC(=O)c2ccccc2OC)nc2ccccc21
  A: -6%	B: 0%	C: 1	D: 2.6%

O=C(NCCCN1CCOCC1)C(=O)c1c[nH]c2ccccc12
  A: -1%	B: 4%	C: .	D: -0.5%

Next part:
Codes: A = miR-21 FLuc; B = Rango dissoc inh; C = GLA inh pH 4.5; D = Rango complex inh
O=C(C1CCC(CNc2c(N3CCCCC3)c(=O)c2=O)CC1)N1CCN(C2CCCCC2)CC1 (centres undefined)
  A: 3%	B: -2%	C: 4	D: -0.9%

CC(C)c1ccccc1NC(=O)C1CC(=O)N(C2CCCC2)C1 (centres undefined)
  A: -2%	B: 0%	C: .	D: -0.8%

Cc1ccc(NC(=O)C(=O)NNC(=O)c2cccs2)cc1
  A: -17%	B: 9%	C: -2	D: ?

CCOC(=O)C(CCCCOc1cccc(CC)c1)C(=O)OCC
  A: -1%	B: -3%	C: -12	D: 3.5%

Cc1cc(C(=O)c2ccccc2)c(NC(=O)CCl)s1
  A: 26%	B: -1%	C: 0	D: -3.2%

O=C(CO/N=C/c1c(Cl)cccc1Cl)NNC(=O)c1cccc(Cl)c1
  A: -5%	B: -2%	C: -5	D: -0.9%

COc1ccccc1C(=O)Nc1ccc(OCC(=O)N2C(C)CCCC2C)cc1 (centres undefined)
  A: .	B: -1%	C: .	D: -0.2%

COc1cccc(C2(O)CCN(C(=O)C3CC3)CC2)c1
  A: 0%	B: 5%	C: -4	D: -0.1%

CN(C(=O)c1ccc2c(Cl)c3c(nc2c1)CCC3)c1ccccc1
  A: -77%	B: -3%	C: -1	D: 1.4%

CCCc1nc2ccc(NC(C)=O)cc2c(=O)n1Cc1ccc(Cl)cc1
  A: -49%	B: -11%	C: -2	D: -1.9%

CN(C)c1ccc(NC(=O)Cn2ncn3c(cc4ccccc43)c2=O)cc1
  A: -3%	B: -9%	C: -4	D: 0.3%

N/C(=N\N=C\c1cccs1)SC1CC(=O)N(c2ccc(Br)cc2)C1=O (centres undefined)
  A: -2%	B: 0%	C: -3	D: -3.1%

CS(=O)(=O)c1ccc(N)c(SSc2cc(S(C)(=O)=O)ccc2N)c1
  A: .	B: -6%	C: .	D: 2.4%

Cc1cc(C)nc(NNC2=CC(=[N+]3CCCCC3)CC(C)(C)C2)n1
  A: 8%	B: -19%	C: -8	D: -0.9%

Cc1cccc(NC(=O)CSc2nc3ccccc3nc2N2CCCC2)c1C
  A: 2%	B: 14%	C: .	D: -2.4%

Arranged by count of non-hydrogen atoms (largest number first): 3 of the compounds above.
Codes: A = miR-21 FLuc; B = Rango dissoc inh; C = GLA inh pH 4.5; D = Rango complex inh
Cc1cccc(NC(=O)CSc2nc3ccccc3nc2N2CCCC2)c1C
  A: 2%	B: 14%	C: .	D: -2.4%

Cc1cc(C)nc(NNC2=CC(=[N+]3CCCCC3)CC(C)(C)C2)n1
  A: 8%	B: -19%	C: -8	D: -0.9%

O=C(CSc1ccc(Cl)cc1)NNC(=O)c1cccnc1
  A: -2%	B: 1%	C: -6	D: -2.0%

(more compounds)
Codes: A = miR-21 FLuc; B = Rango dissoc inh; C = GLA inh pH 4.5; D = Rango complex inh
COc1ccc(N=Cc2[nH]c3ccccc3c2O)cc1
  A: -36%	B: 6%	C: 0	D: 5.1%

CCC(C)(C)n1nnnc1C(c1cccs1)N1CCCCC1 (centres undefined)
  A: -1%	B: 1%	C: -6	D: -1.3%

COc1ccccc1C1CC(=O)Oc2ccc(C(C)(C)C)cc21 (centres undefined)
  A: .	B: 13%	C: -8	D: 0.1%

COc1cccc(CN2CC(C(=O)NCc3cnn(C)c3)CCC2=O)c1 (centres undefined)
  A: 0%	B: -2%	C: .	D: -0.1%

Cc1cccc(NC(=S)NCc2ccc(F)cc2)c1
  A: -15%	B: 3%	C: 1	D: 5.6%

CC1CCN(C(C(=O)Nc2ccc3c(c2)OCO3)c2ccccc2)CC1 (centres undefined)
  A: -11%	B: 10%	C: -5	D: -4.4%

CCn1c(CSCc2ccc(C)cc2)nnc1SCC(=O)NCc1ccccc1
  A: 0%	B: 0%	C: -1	D: 1.0%

CC(=O)c1ccc(NC(=O)c2ccc(CSc3ccccc3)o2)cc1
  A: -21%	B: 13%	C: -5	D: 1.3%

COc1ccc(C(=O)OCC(=O)c2c[nH]c3ccccc23)c(OC)c1
  A: .	B: -13%	C: .	D: 0.1%

COc1ccccc1/C=C(/NC(=O)c1ccccc1)C(=O)NCCCn1ccnc1
  A: 0%	B: 0%	C: .	D: -0.5%

Cc1cc(=O)n(CC(=O)NC2CC2)c2c1c(C)nn2-c1ccccc1
  A: -4%	B: -9%	C: .	D: -1.7%

CCCN(CC(=O)Nc1ccccc1C)C(=O)c1ccc(N2CCCC2)c([N+](=O)[O-])c1
  A: .	B: -12%	C: .	D: 13%

Cc1oc2ccc(NS(=O)(=O)c3ccc(C(C)(C)C)cc3)cc2c1C(=O)Nc1ccccc1
  A: 12%	B: 4%	C: 3	D: 7.0%

COCc1cc(N2CCCC2)nc(-c2ccccc2)n1
  A: 0%	B: 3%	C: ?	D: 5.0%

O=C(NCCCn1ccnc1)C(Cc1ccc([N+](=O)[O-])cc1)N1C(=O)c2ccccc2C1=O (centres undefined)
  A: -4%	B: -2%	C: -4	D: -2.1%

Complete entries as entered above. Order of values: miR-21 FLuc, Rango dissoc inh, GLA inh pH 4.5, Rango complex inh
CC(=O)c1ccc(NC(=O)c2ccc(CSc3ccccc3)o2)cc1 is entered as -21%, 13%, -5, 1.3%
COCc1cc(N2CCCC2)nc(-c2ccccc2)n1 is entered as 0%, 3%, ?, 5.0%
COc1ccc(C(=O)OCC(=O)c2c[nH]c3ccccc23)c(OC)c1 is entered as ., -13%, ., 0.1%

Quoted at random: 2 records from the list, in no set order.
Codes: A = miR-21 FLuc; B = Rango dissoc inh; C = GLA inh pH 4.5; D = Rango complex inh
CC(=O)c1ccc(NC(=O)c2ccc(CSc3ccccc3)o2)cc1
  A: -21%	B: 13%	C: -5	D: 1.3%

CCn1c(CSCc2ccc(C)cc2)nnc1SCC(=O)NCc1ccccc1
  A: 0%	B: 0%	C: -1	D: 1.0%

(more compounds)
Codes: A = miR-21 FLuc; B = Rango dissoc inh; C = GLA inh pH 4.5; D = Rango complex inh
Cc1nc(C)c(C(=O)OCC(=O)NCc2ccccc2Cl)s1
  A: .	B: 14%	C: .	D: -0.9%

Cc1csc(NC(=O)c2ccc(C)s2)n1
  A: .	B: -29%	C: .	D: -0.1%

CC(C)Sc1n[nH]c2nc3c(c(=O)n12)C1(CCCC1)Cc1ccccc1-3
  A: -1%	B: .	C: 16	D: .

Cc1ccc(C(=O)NCC(=O)OCC(=O)c2ccc(C)c([N+](=O)[O-])c2)cc1
  A: 0%	B: 2%	C: 3	D: -2.6%

CCCCOC(=O)Cn1c(=O)oc2ccc(C)cc21
  A: -1%	B: -16%	C: 4	D: -0.3%

O=C(Nc1nc2ccccc2s1)c1ccc(F)cc1
  A: -6%	B: 13%	C: .	D: 0.1%

CCOC(=O)C1CCCN(C/C=C/c2ccccc2)C1 (centres undefined)
  A: -3%	B: 37%	C: .	D: 1.8%

C=CCNC(=O)COc1ccc(Oc2ccccc2)cc1
  A: -26%	B: -8%	C: 14	D: 0.3%

Oc1ccc(Cl)cc1CNCc1ccc(Cl)nc1
  A: .	B: 5%	C: .	D: -0.4%

O[C@@H]1CN(Cc2ccc(-n3cccn3)cc2)CC[C@H]1N1CCN(c2ccccc2F)CC1
  A: 14%	B: -2%	C: .	D: 0.2%

CC(C)(C)n1nc2c(c1NC(=O)CCCc1ccccc1)CS(=O)C2 (centres undefined)
  A: 0%	B: 31%	C: 8	D: -1.2%

Cc1ccc2cccc(NC(=S)NC(=O)c3ccnn3C)c2n1
  A: -8%	B: -14%	C: 1	D: -1.3%
